High-throughput results deposited in PubChem by several laboratories.
HIV Env fusion – HIV envelope-mediated fusion inhibition | HeLa-JRFL Env/CEM21 cell fusion, luciferase | inhibition, % at 12.3 µM | hit rate 1.1% among 360,000;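 active = mean replicate inhibition score of at least 50 and every replicate individually at or above 50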;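 also: 0% = plate neutral controls and 100% = maraviroc near 300 nM; one replicate is shown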
MT1-MMP act inh – blocks activation of human MT1-MMP | P50281 | hit rate 0.061% among 360,000 | HT1080 RFP-PRO-GFP cells, GFP/RFP ratio fluorescence, overnight; percent of plate control window, DMSO zero | GFP/RFP ratio change, % at 20 µM;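 active = GFP/RFP ratio change of at least 30% with cell ATP level not reduced by more than half and red fluorescence within 50% of control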; also: strong numbers were not always called active
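system = RFP-PRO-GFP reporter HT1080 cells | dosing = 20 µM single dose, 1% DMSO | timing = overnight cell settling, then overnight compound exposure, 37 °C, 5% CO2 | read-out basis = GFP/RFP fluorescence ratio | controls = DMSO and RFP-L50D-GFP cell wells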
PABP FP inh – PABP-poly(A) binding inhibition; P11940; PABP-poly(A) RNA binding, fluorescence polarization; inhibition, % at 35 µM; hit rate 1% among 290,000;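 active = 50% or more with normal probe brightness, or confirmed in later tests; about a fifth of its hits are not listed in these tables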;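 also: calls also rest on retests at 20 µM and on dose response follow-up; controls were probe without protein and protein plus probe with vehicle; some compounds called inactive have numbers as strong as hits; many hits fall short of the cut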
Rce1 inhib – yeast Ras-converting enzyme inhibition; Q03530; yeast membranes, quenched prenylated peptide cleavage fluorescence; calls only; hit rate 0.27% among 290,000; AID 2563;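 active = fall in fluorescence gain of 50% or more versus controls, with final raw signal at or below 3038400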;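 also: plate controls were neutral control wells for no effect and wells lacking membranes for full effect; tested at 10 µM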
Target sequence (Q03530 whole entry, looked up): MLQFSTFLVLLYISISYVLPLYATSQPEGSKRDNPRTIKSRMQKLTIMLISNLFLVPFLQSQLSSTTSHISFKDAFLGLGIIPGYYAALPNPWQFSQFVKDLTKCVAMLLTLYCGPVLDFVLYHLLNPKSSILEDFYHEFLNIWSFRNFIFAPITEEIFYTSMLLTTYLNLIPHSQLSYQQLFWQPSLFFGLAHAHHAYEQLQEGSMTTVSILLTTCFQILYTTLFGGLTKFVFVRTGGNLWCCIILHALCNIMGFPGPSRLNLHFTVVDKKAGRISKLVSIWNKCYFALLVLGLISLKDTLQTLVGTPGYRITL
eIF4H FP inh – inhibitors of RNA binding by human eIF4H; eIF4H fluorescence polarization binding assay; inhibition, % at 35 µM; hit rate 0.94% among 290,000; AID 2012;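 active = 50% or more with normal probe brightness, or confirmed in later tests; about a fifth of its hits are not listed in these tables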;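 also: calls also rest on retests at 20 µM and on dose response follow-up; 0% = protein and probe with vehicle and 100% = probe without protein; strong numbers were not always called active; many hits fall short of the cut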
Yeast UUG start – alters start codon recognition fidelity in yeast; S. cerevisiae UUG-firefly luciferase reporter, luminescence/redox ratio; activity score, % at 18.7 µM; hit rate 0.13% among 350,000; AID 602363;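 active = replicate mean at a twofold rise or more, about +100% in these data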;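 also: firefly luciferase made from a UUG start codon reports start codon fidelity; reporter light over untreated wells divided by growth signal over untreated wells; some hits fall short of that in this replicate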
CSC inhib – cancer stem cell inhibition. cancer stem cell-like cells viability, luminescence. inhibition, % at 7.5 µM. hit rate 1.1% among 300,000;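 active = mean at 75% or more and at least half the replicates too; tested in HMLE shEcad cells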;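 also: 0% = median of negative and 100% = median of positive control wells; the first replicate is given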
eIF4H FP inh retest – further read-out of eIF4H FP inh, marked with its call; inhibition, %; compound at 20 µM; confirmation average;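 mean of two retest wells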
PABP FP inh retest – recorded beside PABP FP inh, whose call it bears; inhibition, %; compound at 20 µM; confirmation repeats;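 mean of two retest wells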
MT1-MMP act inh RFP – further read-out of MT1-MMP act inh, marked with its call; RFP signal change, %; measured here: RFP expression control read;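 0 = vehicle wells; hits needed this value within 50% of zero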
* hit, by the source's call; i = inactive; nt = not tested or not shown. A portion of the library; count on the stated rates, not on these rows.

SMILES	HIV Env fusion	MT1-MMP act inh	MT1-MMP act inh RFP	PABP FP inh	Rce1 inhib	eIF4H FP inh	Yeast UUG start	CSC inhib	others
O=C(NCC1CCCO1)C1c2ccccc2C(=O)N1C1CCCCCCC1 (stereo not drawn)	nt	1	2	-9	i	-6	nt	1
CCS(=O)(=O)n1nc(-c2ccco2)nc1SC	4	-4	4	26	i	5	nt	-5
O=C1CSC(=S)N1N=Cc1ccc(OCc2ccccc2)cc1	-17	-4	9	nt	nt	nt	-26	nt
CCn1c2ccccc2c2cc(NC(=O)C(=O)N3CCOCC3)ccc21	-15	3	1	1	i	-5	-15	9
O=C(NCc1ccccc1)Nc1cc(Cl)ccc1Cl	-31	-4	-4	-4	i	-8	-11	-5
COc1ccc(Oc2c(C)oc3c(CN(C)C)c(O)ccc3c2=O)cc1	-6	3	0	-6	i	-9	16	-4
CCc1ccc2c(c1)C(NC(C)=O)C(=O)N2CC (stereo not drawn)	-1	-2	5	-6	i	-6	-25	3
COc1ccc2c(CN3CCOCC3)cc(=O)oc2c1	12	2	6	nt	nt	nt	-10	nt
CCN(c1ccccc1)S(=O)(=O)c1ccc(C(=O)N2CCN(c3ccccc3F)CC2)cc1	3	1	-3	nt	nt	nt	-5	nt
CC(Oc1ccc(Cl)cc1)c1ccnn1S(C)(=O)=O (stereo not drawn)	-59	-3	-9	18	i	-1	-11	-8
CCC(Nc1ccc(OC)cc1)C(=O)N/N=C/c1ccc([N+](=O)[O-])cc1 (stereo not drawn)	nt	-4	-2	-4	i	1	0	-12
Nc1c(C(=O)CSc2n[nH]c(-c3ccccc3Br)n2)c(=O)[nH]c(=O)n1C1CC1	-19	-1	-3	nt	nt	nt	-16	1
COc1ccc(C(=O)/C=C/Nc2ccc(S(=O)(=O)Nc3nc(C)cc(C)n3)cc2)c(OC)c1	19	-5	8	7	i	1	2	-10
Cn1cc(Br)c(C(=O)Nc2sc3c(c2C#N)CCC3)n1	-10	-3	0	-8	i	0	-15	-5
Cc1c2c(c(C)n1C)C(C(=O)NC1CCCCC1)N(Cc1ccccc1)C2=O (stereo not drawn)	6	-6	1	-1	i	4	-16	10

Filtered by structure: the compounds so far containing four or more nitrogen atoms.
SMILES	HIV Env fusion	MT1-MMP act inh	MT1-MMP act inh RFP	PABP FP inh	Rce1 inhib	eIF4H FP inh	Yeast UUG start	CSC inhib	others
CCC(Nc1ccc(OC)cc1)C(=O)N/N=C/c1ccc([N+](=O)[O-])cc1 (stereo not drawn)	nt	-4	-2	-4	i	1	0	-12
Nc1c(C(=O)CSc2n[nH]c(-c3ccccc3Br)n2)c(=O)[nH]c(=O)n1C1CC1	-19	-1	-3	nt	nt	nt	-16	1
COc1ccc(C(=O)/C=C/Nc2ccc(S(=O)(=O)Nc3nc(C)cc(C)n3)cc2)c(OC)c1	19	-5	8	7	i	1	2	-10
Cn1cc(Br)c(C(=O)Nc2sc3c(c2C#N)CCC3)n1	-10	-3	0	-8	i	0	-15	-5

The results go on:
SMILES	HIV Env fusion	MT1-MMP act inh	MT1-MMP act inh RFP	PABP FP inh	Rce1 inhib	eIF4H FP inh	Yeast UUG start	CSC inhib	others
Cc1nnc(SCC(=O)N2CC(=O)Nc3ccccc32)s1	1	2	1	-3	i	-11	nt	-5
O=C(O)C1=C[C@@H](c2ccc3c(c2)OCO3)C[C@@H](OCCCCO)O1	-11	2	1	5	i	6	-26	-3
Cc1ccc(NC(=O)CCN2CC(C)OC(C)C2)cc1C (stereo not drawn)	17	0	-1	0	i	2	-11	-9
CN(CC(=O)NCc1ccccc1Cl)CC(=O)Nc1ccccc1Br	7	-1	1	nt	nt	nt	-6	-13
COc1ccc(-n2cc(CNC3CCOCC3)c(-c3cccc(F)c3)n2)cc1	-66	-4	-2	6	i	-5	nt	-4
O=C(N/N=C/c1ccccc1)c1c(O)c2ccccc2[nH]c1=O	nt	-14	-16	14	i	-4	nt	19
O=C1Nc2ccc(S(=O)(=O)NCc3ccco3)c3cccc1c23	nt	0	1	nt	i	nt	1	-2
Cc1ccc2nc(CSc3nc(C)cc(C)c3C#N)[nH]c2c1	i	5	0	-10	i	-15	-35	-4
O=C(N1CCOCC1)C12CC3CC(C1)CC(c1ccccc1)(C3)C2	-9	-2	-3	-10	i	-9	10	-6
Cc1cc(NC(=O)CSc2nc(CCC3CCCC3)nc3ccccc23)no1	19	-8	-6	4	i	47	-3	33
C=CCC(c1ccccc1F)N(CCN1CCOCC1)C(=O)Nc1cccc(Cl)c1 (stereo not drawn)	-3	1	0	16	i	-2	-10	-10
O=S(=O)(c1cccs1)N1CCN(c2ccc(F)cc2)CC1	-1	0	0	2	i	8	nt	-5
CC(=O)c1cccc(N(CC(=O)N2CCOCC2)S(C)(=O)=O)c1	nt	0	2	-16	i	2	6	nt
C=CCn1c(SCC(=O)N2CCCCCC2)nc2ccccc2c1=O	33	1	-7	2	i	-8	-2	-8
CCOC(=O)c1cc(Br)c(=O)n2ccccc12	nt	-2	6	14	i	9	-9	7
COc1cccc(N2CCN(C(=O)CN(C)S(=O)(=O)c3ccc4c(c3)CCC(=O)N4)CC2)c1	4	-1	1	11	nt	-4	6	-5
CCC1COCCS(=O)(=O)N1Cc1ccc(F)cc1 (stereo not drawn)	nt	0	6	13	i	5	-17	5
CN(C)c1oc(-c2ccccc2[N+](=O)[O-])nc1C#N	-23	2	3	7	i	-6	-18	-3
COc1ccc(C(C)NC(=S)NCc2ccc(F)cc2)cc1OC (stereo not drawn)	5	4	1	6	i	-16	-31	-4
O=C(O)CSc1cccc[n+]1[O-]	-69	5	11	0	i	1	-7	-14
Cc1ccc(N(C(=O)c2ccccc2Cl)C2=NC(C)CS2)c(C)c1 (stereo not drawn)	22	-13	-7	-6	i	2	nt	22
O=c1cc(CNc2cc(Cl)ccc2Cl)nc2sccn12	nt	-2	-2	7	i	-8	-14	2
COc1cccc(C(=O)Nc2cccc(-c3ccccc3)c2)c1	-3	4	-3	2	i	1	7	-1
CNC(=S)SCCOc1ccccc1	-7	2	1	-1	i	-19	nt	18
O=C(Nc1ccc2c(c1)OCCO2)C(C1CC1)N1CCN(c2ccc(C(F)(F)F)cn2)CC1 (stereo not drawn)	25	4	-3	nt	nt	nt	0	nt
CC1CCCCC12NC(=O)N(CC(=O)NCCc1ccc(S(N)(=O)=O)cc1)C2=O (stereo not drawn)	4	-5	3	nt	nt	nt	-23	-25
Cc1ccc(NC(=O)COC(=O)CNC(=O)C2CCCCC2)cc1S(=O)(=O)N(C)C	-18	1	1	nt	nt	nt	-22	-1
Cc1ccccc1NC(=O)c1cn2c(nc3ccccc32)c(C#N)c1C	-11	-6	8	40	i	88	-9	-6	eIF4H FP inh retest=-8;PABP FP inh retest=20
Cc1cccc(OCC(O)Cn2c(N3CCCCC3)nc3c2c(=O)n(C)c(=O)n3C)c1 (stereo not drawn)	2	2	2	-1	i	-6	1	-8
Cc1cc(C)c(S(=O)(=O)N2CCN(C(=O)c3ccc(-n4cncn4)c([N+](=O)[O-])c3)CC2)c(C)c1	nt	-1	-7	nt	i	nt	nt	-6
Cn1c(CNC(=O)c2ccccc2F)nnc1SCC(=O)Nc1nnc(C2CC2)s1	-5	-2	0	-8	i	4	-18	nt
O=C1CC(N2CCN(c3ccccc3)CC2)C(=O)N1CCc1ccccc1 (stereo not drawn)	nt	4	2	-2	i	-4	-12	21
COc1ccc(CNn2c(-c3ccccc3F)nc3ccccc3c2=O)cc1OC	20	0	-7	15	i	2	-10	-16
CCN=C1S/C(=C\c2ccc(O)c(OCC)c2)C(=O)N1CC	-27	-7	-1	1	i	-1	nt	66
CCCCC(CC)CNC(=O)c1cccs1 (stereo not drawn)	4	-2	2	-5	i	2	-15	-6
CC(C)C(=O)N(Cc1ccc2c(c1)OCO2)Cc1ccccn1	-53	-2	1	18	i	3	-18	nt
O=C(NCCc1ccccc1)C1(c2ccccc2)CC1(Cl)Cl (stereo not drawn)	-9	0	1	2	i	5	-21	9
CCOC(=O)c1c(C)[nH]c(C(=O)Cn2nnc(-c3ccccc3)n2)c1C	-74	-4	0	-5	i	-5	4	-2
CC(=O)c1ccc(OC(=O)COc2ccccc2Cl)cc1	-32	-8	-1	8	i	-12	-16	14
O=C(COC(=O)c1cc(Cl)nc(Cl)c1)Nc1ccc(Cl)c(S(=O)(=O)N2CCOCC2)c1	-5	0	5	nt	nt	nt	-9	-12
COC(=O)c1cc(=O)n(Cc2ccc3c(c2)OCO3)c(=Nc2ccc(F)c(Cl)c2)s1	nt	-5	-22	4	i	2	2	54
Cc1ccc(NC(=O)CN2C(=O)C(=O)N(C3CCCC3)C2=O)cc1Cl	-7	-2	2	nt	nt	nt	-5	13
O=C(NCc1ccco1)C1CCCN1S(=O)(=O)c1ccc2ccccc2c1 (stereo not drawn)	nt	-3	0	31	i	3	4	-1
COc1ccccc1NS(=O)(=O)c1c(C(=O)N2CCCC2)c(C)n(C)c1C	31	0	-1	9	i	4	7	-20
O=C(NCCCN1CCOCC1)C(=O)N/N=C/c1ccccc1O	-20	2	8	-6	i	-2	nt	29
Cn1nnnc1SCC(=O)NCc1ccccc1	nt	-1	-5	8	i	-1	-15	-1
CC1CCN(C(=O)/C(=C\c2ccccc2)NC(=O)c2ccccc2)CC1	11	-3	-3	10	i	29	-9	-29
COc1ccc(C(=S)N2CCOCC2)cc1OC(=O)c1ccccc1	0	1	5	-3	i	-8	-5	-11
O=S(=O)(c1ccc(F)cc1)N1CCN(Cc2ccccn2)CC1	-9	-5	-5	-5	i	-1	-12	-20
Cn1c(NC(=O)c2cccs2)c(-c2cccs2)c(=O)c2ccccc21	-4	-4	9	8	i	2	0	-4
O=C(CCS(=O)(=O)c1ccccc1Cl)NC1CCCCCC1	nt	0	-3	nt	nt	nt	2	-4
O=C(NCc1ccccc1)c1cccnc1	9	-1	-2	-2	i	4	-10	-9
N#CCCCCN1CCCC1	-10	-1	3	11	i	-7	-13	-6
CCOC(=O)CP(=O)(c1ccccc1)c1ccccc1	nt	2	-1	6	i	-12	-7	nt
C/C(=N/NC(=O)CNC(=O)CCc1ccccc1)c1ccc(Cl)cc1	-11	-1	0	1	i	-10	nt	-1
COc1cccc(NS(=O)(=O)c2cn(C)c(=O)n(C)c2=O)c1	-15	-1	2	3	i	-5	-11	-14
CCN1C(=O)c2ccccc2Sc2ccc(C(=O)NCCCN3CCCCC3)cc21	0	4	5	2	i	-10	-5	4
CCOC(=O)c1sc(C)c(C(=O)NCC(C)(C)CN(C)C)c1N	nt	0	5	-2	i	-2	-4	4
O=C(COc1ccccc1Cl)Nc1nnc(S(=O)(=O)N2CCCC2)s1	-14	nt	nt	7	i	5	-5	3
COc1ccc(C(=O)Nc2nc(CC(=O)NCCc3cccc(OC)c3)cs2)cc1	-5	2	-6	nt	i	nt	nt	0
(further entries)
SMILES	HIV Env fusion	MT1-MMP act inh	MT1-MMP act inh RFP	PABP FP inh	Rce1 inhib	eIF4H FP inh	Yeast UUG start	CSC inhib	others
Cc1ccc(S(=O)(=O)N2CCN(Cc3cc(C(C)(C)C)ccc3O)CC2)cc1	28	-2	1	5	i	-11	8	-7
Fc1ccc(NC(=S)N2CCc3ccccc32)cc1	3	4	0	27	i	-5	-16	-9
CCCCCCn1ccc(=N)cc1	nt	-7	-27	7	i	-6	nt	12
CCCNC(=O)c1ccc2c(=O)c(O)c(-c3ccc(F)cc3)[nH]c2c1	nt	5	0	23	i	25	-7	4
O=C(Nc1ccc(N2CCCC2)cc1)c1ccccc1[N+](=O)[O-]	-13	-3	2	0	i	-10	-3	-6
O=C(O)CC(C(=O)OCC1CCCO1)N1CCOCC1 (stereo not drawn)	-82	-2	1	5	nt	-4	-10	nt
Cc1ccc(OCCCn2c(CO)nc3ccccc32)cc1	nt	3	-6	10	i	1	-15	-6
